# TRPML1 inh – human mucolipin-1 channel inhibition. TRPML1-inducible cells, Ca2+ dye fluorescence, FDSS; active compounds read low; inhibition of EC80 agonist-evoked calcium signal. activity change, negative = inhibition, % (no concentration beside the values). Q9GZU1. hit rate 0.02% among 390,000; in the data active means activity change below about -50%; inconclusive means about -30% to -50%; inactive means above about -30%;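 also: stimulus is agonist 54-4 at its EC80 concentration; % is scaled to controls: 0 for no effect and ±100 for the full control effect; compound concentration not given in the record; the text of the record puts the active cut at -80%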
#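 Tet-induced TRPML1-DL cells loaded with Ca8 no-wash calcium dye were read kinetically on FDSS. Compound addition was followed by EC80 agonist 54-4 (4 uM final); inhibition was read over 110 s.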
# Six1-Eya2 blk – inhibitors of human Six1/Eya2 interaction | Q15475+O00167 | AlphaScreen GST-Six1/His-Eya2 binding, biochemical; active compounds read low; control for the full effect not named in the record | hit rate 0.56% among 360,000 | activity change, % (no concentration beside the values) | AID 651725; in the data active = activity change below about -65%; inconclusive = about -30% to -65%; inactive = above about -30%; also: % is scaled to controls: 0 for no effect and ±100 for the full control effect
# Target sequence (O00167 whole entry, looked up): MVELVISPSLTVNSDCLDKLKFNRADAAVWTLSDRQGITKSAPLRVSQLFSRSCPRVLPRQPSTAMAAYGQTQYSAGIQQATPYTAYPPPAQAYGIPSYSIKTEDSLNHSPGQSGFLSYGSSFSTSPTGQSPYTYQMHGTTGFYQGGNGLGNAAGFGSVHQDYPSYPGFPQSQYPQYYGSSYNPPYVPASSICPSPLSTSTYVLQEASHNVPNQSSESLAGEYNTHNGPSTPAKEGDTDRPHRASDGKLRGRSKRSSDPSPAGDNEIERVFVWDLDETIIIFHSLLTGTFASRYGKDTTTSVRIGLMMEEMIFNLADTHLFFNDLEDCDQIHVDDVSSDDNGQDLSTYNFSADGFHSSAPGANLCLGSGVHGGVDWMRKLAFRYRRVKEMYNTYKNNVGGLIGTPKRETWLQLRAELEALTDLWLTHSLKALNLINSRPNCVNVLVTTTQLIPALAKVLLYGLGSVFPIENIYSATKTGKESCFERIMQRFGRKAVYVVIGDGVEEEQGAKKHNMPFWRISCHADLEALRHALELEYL
# Target sequence (Q15475 whole entry, looked up): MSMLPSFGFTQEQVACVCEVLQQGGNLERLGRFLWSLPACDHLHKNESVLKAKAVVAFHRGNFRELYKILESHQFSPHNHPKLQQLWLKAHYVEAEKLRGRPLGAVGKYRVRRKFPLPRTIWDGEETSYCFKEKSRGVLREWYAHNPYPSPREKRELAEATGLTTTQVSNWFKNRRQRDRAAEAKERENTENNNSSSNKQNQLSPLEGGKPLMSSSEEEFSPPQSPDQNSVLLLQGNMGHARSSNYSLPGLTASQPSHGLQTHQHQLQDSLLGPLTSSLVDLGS
#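 Homogeneous AlphaScreen proximity assay pairing GST-Six1 with His-tagged Eya2 (added as 5X mix: 250 nM and 500 nM) in 50 mM Tris pH 8.0, 300 mM NaCl, 1 mM TCEP. Glutathione donor and nickel acceptor beads; 1 h, 37 °C, dark.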
# D2 ag – activates the human D2 dopamine receptor | P14416 | DiscoveRx PathHunter D2 beta-arrestin, luminescence, 90 min; 100% = 57 uM dopamine signal | activation, % (test concentration not listed) | hit rate 0.084% among 360,000 | AID 624465; in the data active = activation above about 40%; inconclusive = about 15% to 40%; inactive = below about 15%; also: compound concentration not given in the record; the text of the record calls up to 30% inactive
#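 Agonist mode: compounds alone added to overnight-plated D2 PathHunter cells for 90 min at 37 C, with 57 uM final dopamine (EC100) defining full response. Beta-arrestin recruitment detected by chemiluminescent reagent, read after 1 h at ambient temperature.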
# PINK1 modulator – modulators of PINK1 expression; Potency, µM (titrated, usually from 76.6 µM), for the others: at the highest dose activation (PINK1 increase), most hits filed as activators; hit rate 0.2% among 410,000; PINK1 immunofluorescence, high-content cytometry, 24 h; active = well fitted activation curve with a large enough effect; inconclusive = small, poorly fitted or top-dose-only effect; inactive = flat fitted curve, though single readings scatter; cell line not stated here;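 also: potency is read from the fitted curve at half-maximal effect; % of control where 0% means no effect; nearly all actives have a fitted effect of over 65% in size; a mitochondrial uncoupler was the plate control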
#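 Stable cell line treated 24 h with compounds at 5 concentrations (CCCP controls), then fixed and immunostained for PINK1 plus nuclear and cell stains; PINK1 immunofluorescence quantified by laser-scanning microplate cytometry.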
# TRPML1 agonist – agonists of human TRPML1 channel; Q9GZU1; TRPML1-expressing cells, Ca2+ dye fluorescence, FDSS; host cell line not named in the record; reference of the full effect not given here; activation, % (test concentration not listed); hit rate 0.12% among 410,000; AID 624414; in the data active = activation above about 50%; inconclusive = about 30% to 50%; inactive = below about 30%; also: 0% is about no effect; the text of the record puts the active cut at 80%
#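 Tetracycline-induced TRPML1-DL cells are seeded and incubated overnight before loading with a no-wash Ca2+ dye and quencher. Agonist activity is taken from the 110 s fluorescence read following compound pin-transfer on an FDSS, before EC80 54-4 challenge.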
# D2 potentiator – positive allosteric modulators of human D2 dopamine receptor; P14416; potentiation, % (no concentration beside the values); DiscoveRx D2 beta-arrestin cells, luminescence, 90 min; 100% = 57 uM dopamine signal; AID 624464; hit rate 0.23% among 360,000; active = potentiation of 50% or more; inconclusive = 30% to 50%; inactive = 30% or less;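 also: compound concentration not given in the record; tested on top of an EC20 dose of dopamine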
#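 D2 cells co-treated with compound plus 50 nM dopamine (EC20) for 90 min at 37 deg C to detect potentiation. Beta-arrestin recruitment was read as enzyme-fragment luminescence after 1 h at ambient temperature. Full response was set by 57 uM dopamine.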
# * hit, by the source's call; ? = inconclusive; / = no result given; & = joins results of further samples; [ ] = remark or other dose.
structure	TRPML1 inh	Six1-Eya2 blk	D2 ag	PINK1 modulator	TRPML1 agonist	D2 potentiator
CN(CC(=O)Nc1ccc(F)cc1)C(=O)C1Cc2ccccc2CN1S(C)(=O)=O (configuration not stated)	-11	2	-2.5	3.8%	-0.3	-11
Cc1ccc(C2=CC(c3c(F)cccc3Cl)n3ncnc3N2)cc1C (configuration not stated)	-27	/	/	2.2%	0.3	/
COCC(=O)N(C)C1(c2nnnn2CCOC(=O)Nc2ccc(Cl)cc2)CCCCC1	24	0	1.3	-0.3%	0.2	-8
COc1ccc(C2=NOC(c3nnc(-c4ccccc4)o3)C2)cc1 (configuration not stated)	17	4	-2.0	-0.9%	-0.3	-1
NC(=O)c1nsc(C(=O)N(Cc2cccnc2)C(C(=O)NC2CCCCC2)c2ccc(F)cc2)c1N (configuration not stated)	-8	7	-2.8	9.3%	0.0	-7
CC1(C)Cc2c(c(-c3ccccc3)nc3[nH][nH]c(=O)c23)CO1	0	0	-1.7	-0.8%	1.4	2
O=C(Cc1ccc(-n2c(=O)[nH]c3ccsc3c2=O)cc1)N1CCN(c2ccc(Cl)cc2)CC1	2	-27	1.7	-1.7%	-0.5	-4
O=c1c2cc3c(cc2n(Cc2ccc(Cl)cc2)c(=O)n1Cc1nc(-c2ccccc2)no1)OCO3	42	/	/	3.2%	3.3	/
CCCCCCn1cc(CN2CC(N3CCN(Cc4cccc(C)c4)CC3)CS2(=O)=O)nn1 (configuration not stated)	/	1	/	-1.0%	-0.9	/
O/N=C1\CCCCc2ccccc21	-8	2	0.4	/	0.3	-5
Cc1cc(C)cc(-n2c3ccc(NC(=S)NC4CCCCC4)cc3c(=O)n2C)c1	/	-6	-0.5	0.4%	-0.9	-17
COc1ccc(S(=O)(=O)Cc2ccc(C(=O)NCc3ccccc3OC)o2)cc1	-8	0	-12	1.2%	0.8	-13
Cc1nc(C)c(C(=O)N2CCCC(C(=O)c3cc(F)ccc3F)C2)s1 (configuration not stated)	14	10	-0.2	1.4%	-0.2	1
CCCCOc1ccccc1N	10	-3	-0.5	-0.9%	-0.2	2
O=C(Cn1c(C(=O)O)cc2ccccc21)c1ccccc1	0	4	-3.3	2.3%	0.3	-1
Cc1cccc(N2CCN(C(=O)CCCCn3c(=O)[nH]c4ccsc4c3=O)CC2)c1C	34	/	/	0.4%	1.6	/
O=C(c1ccccc1)c1ccc2nc(Nc3ccccc3Cl)c3nncn3c2c1	14	/	/	-1.2%	0.5	/
CCc1nn2c(=O)cc(CSCC(=O)Nc3ccccc3F)nc2s1	-21	-1	-1.6	0.9%	0.2	-5
CC1CCC2(CC1)NC(=O)N(CC(=O)Nc1ccc(F)cc1)C2=O (configuration not stated)	?	20	-1.0	-1.0%	-0.1	-5
O=C(NCCc1ccc(F)cc1)C(=O)NCC1CCCN1S(=O)(=O)c1ccccc1 (configuration not stated)	15	-7	-0.4	3.3%	1.3	5
NS(=O)(=O)c1cccc(NC(=O)Cn2nc(C(=O)O)c3ccccc3c2=O)c1	-10	9	-1.5	-0.5%	0.6	-5
O=C(NC1CCCCC1)C1CCN(c2nnnn2-c2ccccc2)CC1	12	3	2.5	4.2%[38.3 µM]	0.7	0
COc1ccc(CCNC(=O)[C@@H]2C[C@H]2c2ccccc2)cc1OC	-19	7	-5.6	-0.6%	-0.2	-4
COc1ccc(C#Cc2cnc3c(c2)C(=O)N([C@H](C)CO)C[C@@H](C)[C@H](CN(C)C(=O)CN(C)C)O3)cc1	-5	2	-1.1	4.0%	-0.1	-1
COc1cccc(-c2nc(CS(=O)CC(=O)O)c(C)o2)c1 (configuration not stated)	-9	8	-3.4	-1.2%	-0.3	-8
CC(C)(c1ccc(O)c([N+](=O)[O-])c1)c1ccc(O)c([N+](=O)[O-])c1	4	-7	0.9	-1.7%	2.0	-8
COc1ccccc1C1CC(=O)Oc2ccc(C(C)(C)C)cc21 (configuration not stated)	-4	8	-0.6	-1.0%	4.9	/
O=C(Nc1ccccc1Sc1ccccc1)C1CCCO1 (configuration not stated)	-2	11	2.2	?	1.4	-9
O=C(COc1ccccc1F)NC1CC1	23	4	-4.5	/	0.4	-12
CCS(=O)(=O)N1CCC(C(=O)Oc2ccccc2Br)CC1	-18	-14	2.2	0.7%	-0.4	-3
CC(C)(C)C(=O)/C(=C/c1ccc(Cl)cc1)n1cncn1	5	7	-5.1	-1.6%	1.1	-8
CCN(CC(=O)NCc1cccs1)C(=O)c1ccc(S(=O)(=O)Nc2ccccc2C)cc1	2	3	1.8	2.7%	0.1	-8
COCCCNc1nc2c(c(=O)n(Cc3ccc(Cl)cc3)c(=O)n2C)n1C	-2	-7	8.3	1.0%	-0.3	-11
CCCn1c(SCC(=O)NCc2ccccc2Cl)n[nH]c1=O	-10	0	-4.0	-0.6%	-0.4	-9
CCCn1c2ccccc2c2cnn(CC(=O)NC3CCCCC3C)c(=O)c21 (configuration not stated)	6	4	2.5	1.9%	-0.8	-7
COc1ccc(CNC(=O)c2ccc(Cn3nc(C)c([N+](=O)[O-])c3C)o2)cc1	18	3	1.1	-1.3%	0.9	7
O=C(COC(=O)c1ccc([N+](=O)[O-])cc1)NC12CC3CC(CC(C3)C1)C2	-3	-6	-1.7	1.7%	0.2	-1
CSc1nc(-c2ccccc2)nc(C(Cl)Cl)n1	-12	3	-3.1	-5.7%	1.4	-20
COc1ccc(/C=C/C(=O)Nc2ccc3nc4n(c(=O)c3c2)CCCC4)cc1	-1	-12	5.6	14%	1.1	-2
COCCC(=O)N1CCC(n2nccc2NC(=O)CCc2ccccc2)CC1	22	-3	-3.7	0.7%	0.1	2

# Single records, from the list above. Screens in order: TRPML1 inh	Six1-Eya2 blk	D2 ag	PINK1 modulator	TRPML1 agonist	D2 potentiator
# `O=C(Nc1ccccc1Sc1ccccc1)C1CCCO1` (configuration not stated) in the list: -2	11	2.2	?	1.4	-9
# `O=C(COC(=O)c1ccc([N+](=O)[O-])cc1)NC12CC3CC(CC(C3)C1)C2` in the list: -3	-6	-1.7	1.7%	0.2	-1
# `O=C(NC1CCCCC1)C1CCN(c2nnnn2-c2ccccc2)CC1` in the list: 12	3	2.5	4.2%[38.3 µM]	0.7	0
# `CCCn1c2ccccc2c2cnn(CC(=O)NC3CCCCC3C)c(=O)c21` (configuration not stated) in the list: 6	4	2.5	1.9%	-0.8	-7

# The results go on.
structure	TRPML1 inh	Six1-Eya2 blk	D2 ag	PINK1 modulator	TRPML1 agonist	D2 potentiator
N#CCCn1cc(/C=C(\C#N)c2nc3ccccc3s2)c(-c2ccc(F)cc2)n1	6	7	3.3	?	-0.7	7
COc1ccc(Cl)cc1C(=O)NNC(=O)c1cccnc1	-4	-4	-2.4	/	0.7	-4
Cc1nc2cc(-c3ccsc3-n3c(C)ccc3C)[nH]n2c(=O)c1Cl	3	-78*	-0.4	?	0.0	-7
Cc1nccn1-c1ccc(NC(=O)[C@H]2O[C@@H](n3cnc4c(N)ncnc43)[C@H](O)[C@@H]2O)cc1	5	2	-4.7	-0.9%	-0.5	-6
CCOc1ccc(/C=N/NS(=O)(=O)c2ccc(C)cc2)cc1OC	/	3	-0.7	-0.1%	/	24
Clc1ccc(N2CCN(c3ncnc4c3nc3n4CCCC3)CC2)cc1	21	/	/	1.7%	-1.1	/
O=[N+]([O-])c1cccc(N(CC(O)CN2CCCC2)S(=O)(=O)c2ccccc2)c1 (configuration not stated)	-24	1	-2.6	-0.8%	0.5	-20
CC(C)c1ccc(NC(=O)CSC2=Nc3ccccc3C3=NC(CCC(=O)NCc4cccs4)C(=O)N23)cc1 (configuration not stated)	58	/	/	3.2%	2.4	/
O=C(c1ccc([N+](=O)[O-])cc1)N1CCOC12CCN(c1ncc(C(F)(F)F)cc1Cl)CC2	1	-3	-3.0	7.1%	-0.9	-11
CS(=O)(=O)N(CC(=O)N1CCc2ccccc2C1)c1cccc(F)c1	33	-4	-3.8	0.8%	-0.6	9
Cc1ccc(CN2CCN(C3CCOCC3)CC2CCO)cc1 (configuration not stated)	32	7	-1.3	0.2%	-0.3	-6
CC1CCN(S(=O)(=O)c2ccc(C(=O)Nc3nnc(C4=COCCO4)o3)cc2)CC1	17	-14	-3.9	2.1%	1.3	-6
CCCCN(C=O)c1c(CC)nc2c(OCc3cc(Cl)cc(Cl)c3)cccn12	66	-3	3.6	17%	4.1	-20
CC1=CC(C)(C)N2C(=O)C3(C(C#N)=C(N)OC4=C3C(=O)CC(C)(C)C4)c3c(C)c(C)cc1c32 (configuration not stated)	4	-4	-1.8	?	0.2	-7
COc1ccc2[nH]c(=O)c(CN(C(C)=O)C3CCCCC3)cc2c1	13	-6	-3.3	/	0.1	-5
COc1ccc(-c2nc(CSCC(=O)NCC3CCCO3)c(C)o2)cc1OC (configuration not stated)	8	3	-2.7	-0.3%	0.9	5
O=C(NC(=S)NCCO)c1cn(-c2ccccc2)nc1-c1ccccc1	5	2	-0.4	1.2%	1.9	-5
Cc1cc(C)c2c(c1)/C(=N/NC(=O)c1ccc(O)cc1)CCC2	1	-4	-1.7	2.4%	1.6	-9
COc1cc(NC(=O)c2nnn(CC(=O)Nc3cc(C)ccc3C)c2N)cc(OC)c1	6	/	/	?	0.4	/
Cc1ccc(CN2CCSc3ccc(C(=O)NC4CCN(Cc5ccccc5)CC4)cc32)cc1	36	0	-4.6	0.3%	0.0	-13
CC(CCc1ccc(O)cc1)N(C)CCc1ccccc1 (configuration not stated)	30	-2	-1.0	1.8%[38.3 µM]	3.2	-16
COc1cc(/C=N/NC(=S)Nc2cccnc2)cc(OC)c1OC	-12	-25	4.5	-1.2%	1.8	-4
CCn1c(=O)c(C(=O)CN(C)CC(=O)Nc2cccc(F)c2)c(N)n(Cc2ccccc2)c1=O	52	-8	-1.9	5.0%	3.1	1
COc1ccc(C2(CN(C(C)=O)C(C)=O)CCCC2)cc1OC	8	2	-1.5	-0.3%	-0.9	10
CC(C)OC(=O)CSc1nc2c(c(C3CC=CCC3)c1C#N)CCC2 (configuration not stated)	-8	15	-0.1	-0.4%[38.3 µM]	0.0	-9
COc1ccc(-c2cc3ccccc3[nH]2)cc1	8	-6	7.3	1.1%	1.1	3
CSc1ccc(NC(=O)CSc2nc3[nH]c(=O)cc(O)c3s2)cc1	15	-5	-2.3	3.7%	0.1	-11
Cc1cc(C)n(CCC(=O)N/N=C/c2ccc(Br)c([N+](=O)[O-])c2)n1	15	-15	-1.8	5.3%	0.9	-16
COc1cc(CN2CCN(Cc3ccc(SC)cc3)CC2)cc(OC)c1O	-19	7	2.4	-2.8%	0.4	-21
CCCN1CCC(=O)N([C@H](CO)Cc2ccccc2)CC1	-1	-11	-2.7	2.1%	-0.5&-0.4	-6

# High-throughput results (PubChem BioAssay)
